# Sa growth inh: S. aureus growth inhibition at 42 and 30 °C, primary screen, LtaS inhibitor project, RN4220, two temperatures; OD600, 20 h, 42 °C; stronger effect = lower value; relative growth, % (test concentration not listed); 170,000 tested, 0.53% active;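 active means growth at 42 °C up to 50% and 20 or more points under that at 30 °C, or under 10% at both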;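 further: 300 nL library stock went into each well; scaled to the means of positive and negative controls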
# GIV-Gai inh: inhibitors of GIV peptide binding to Galpha-i3, primary screen, biochemical, fluorescence polarization, FITC-GIV GBA peptide, rat Galphai3; percent of control (FP), % (concentration not given with the values); 90 min; stronger effect = lower value; scaled: aluminum fluoride 0%, vehicle 100%; 210,000 tested, 0.42% active; AID 1224905, 2016; Guanine nucleotide-binding protein G(i) subunit alpha-3 (Rattus norvegicus), P08753;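 active means replicate mean at 85% of control or lower, very high polarization wells dropped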;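 further: wells of about 15 µL received 100 nL stock; the first replicate is given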
# Target sequence (P08753 whole entry, looked up): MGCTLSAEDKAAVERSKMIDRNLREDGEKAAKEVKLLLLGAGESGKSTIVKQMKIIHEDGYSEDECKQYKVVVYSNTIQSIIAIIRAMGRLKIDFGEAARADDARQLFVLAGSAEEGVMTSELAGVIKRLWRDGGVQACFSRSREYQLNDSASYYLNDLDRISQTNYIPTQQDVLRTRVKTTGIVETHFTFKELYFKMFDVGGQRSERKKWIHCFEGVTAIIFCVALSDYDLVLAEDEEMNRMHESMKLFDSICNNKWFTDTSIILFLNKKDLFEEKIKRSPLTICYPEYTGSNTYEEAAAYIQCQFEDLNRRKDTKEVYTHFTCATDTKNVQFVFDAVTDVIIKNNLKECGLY
# HCMV UL50-53 inh: inhibitors of HCMV UL50-UL53 interaction, biochemical, HTRF; HCMV UL50-UL53 nuclear egress complex (human cytomegalovirus); 190,000 tested, 0.15% active; normalized percent inhibition; inhibition, % (test concentration not listed);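 active means both replicates at 50% or more, plus weaker picks with an unusually low signal ratio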;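 further: stock transfer was 100 nL into about 20 µL; 0% = negative control wells and 100% = wells with untagged competitor protein; inactives centre near -12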
# Sa growth inh second temp: further read-out of Sa growth inh, marked with its call; relative growth, %; measured here: growth at 30 °C;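 optical density after 20 h as mean of two plates; 100% = untreated growth and lower means inhibition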
# Starred values were filed as active, the others as inactive; x = not tested or not shown; & = joins results of further samples.
# Order of values: Sa growth inh, Sa growth inh second temp, GIV-Gai inh, HCMV UL50-53 inh
Cc1ccc2oc(=O)n(CC(=O)O)c2c1
→ 101, 81, 104, 0
O=c1c(C=NCCCN2CCOCC2)c(CSc2ccc(Cl)cc2)[nH]n1-c1nc2ccccc2s1
→ x, x, 106, -8
COC(=O)CCC(=O)Nc1ccc(F)cc1
→ 80, 87, 97, -13
Cc1ccn2c(NS(=O)(=O)c3ccc4c(c3)OCCO4)c(-c3cccs3)nc2c1
→ 88, 92, x, -64
CSC1=NSC2=NS(=O)(=O)CCN12
→ 95, 98, x, -3
CN(C)C(=S)Nc1ccc2c(c1)OCO2
→ 96, 79, 107, 2
COc1ccc2c3c(ccc2c1)C(=O)[C@@](C)(CCC(=O)O)CC3
→ 122, 91, x, -29
CCN1CCc2c(sc3c2C(=O)NC(c2ccc(COc4ccc(Cl)c(Cl)c4)o2)N3)C1 (stereo not given)
→ 94, 88, 124, -46
CC(=O)N1CCCc2cc(S(=O)(=O)N3CCCC(C(=O)Nc4ccc(C)cc4C)C3)ccc21 (stereo not given)
→ 109, 91, 103, x
O=C(Cn1c(CCCO)nc2ccccc21)NC1CC1
→ 112, 89, x, -38
O=C(CCC1CCCCC1)NCc1cccs1
→ 116, 97, 103, -8
CC(C#N)Sc1nnc(-c2cccs2)n1CC1CCCO1 (stereo not given)
→ 74, 91, x, -30
N#C/C(=C\c1ccc(-c2ccc(SC(F)F)cc2)o1)C(=O)Nc1nc2ccccc2s1
→ 103, 98, x, -40
COc1ccc(CCNC(=O)c2cc3ccccn3n2)c(OC)c1OC
→ 80, 84, 102, 0
COC(=O)C1CCN(S(C)(=O)=O)CC1
→ 113, 88, 98, -27
CCC(=O)N1CCc2cc(Br)cc(S(=O)(=O)CCC(=O)NCCc3ccc(OC)c(OC)c3)c21
→ 99, 103, 106, 10
Cc1cccc(C)c1NCc1n[nH]c(=S)n1-c1ccccc1
→ 109, 80, x, -12
COC(=O)c1c(N)c(C#N)c2n1CCC2
→ 113, 92, 80*, x
CN(C)c1ccc(CN2CCc3nc(N4CCN(c5ccccn5)CC4)ncc3C2)cc1
→ 92, 84, 106, x
c1csc(-c2nc3sc(-c4cccs4)nc3s2)c1
→ 108, 92, 99, -9
Cc1nc(N2CCN(c3ccccn3)CC2)c2c(C)c(C(=O)N3CCN(Cc4ccccc4)CC3)sc2n1
→ x, x, 105, -4
O=c1cnc(-c2ccccc2)c(-c2ccccc2)[nH]1
→ 75, 97, 98, 0
CCN1CCC(N2CCN(c3ccccc3)CC2)CC1
→ 105, 111, 98, -14
CCn1cc(C(=O)N=c2sc3ccccc3n2C)c(=O)c2ccc(C)nc21
→ 89, 97, x, 22
CCN(C(=O)c1cn(-c2ccc(OC)cc2)c(=O)c2ccccc12)c1cccc(Cl)c1
→ 102, 107, 104, x
COc1ccc(C2=NN3C(C2)c2ccccc2OC3c2ccc(OC(=O)c3ccc(Br)cc3)cc2)cc1 (stereo not given)
→ x, x, 92, -19
Cc1ccccc1NC(=O)CSC1=Nc2ccccc2C2CC=NN12 (stereo not given)
→ 66, 46, x, -44
COc1ccc(Cc2nnc(SCC(=O)Nc3ccc(OC)cc3)o2)cc1
→ 79, 87, 103, x
CCc1ccc(CNC(=O)c2cc3n(n2)CCCN(Cc2ccccc2)C3=O)cc1
→ 95, 95, 104&94, 10&-16
CCOC(=O)c1[nH]c2ccccc2c1-n1cccc1
→ x, x, 108, -28
COc1ccc(C(=O)c2sc3nc(-c4ccc(F)cc4)ccc3c2N)cc1
→ 106, 98, 107, -8
CSc1cccc(NC(=O)CSc2nncn3c2cc2sccc23)c1
→ 102, 45, 102, x
CCCCn1c(CSc2ncccc2C(=O)O)nc2cc(S(=O)(=O)N3CCOCC3)ccc21
→ 96, 95, x, 6
CCn1c(SCC(=O)NC2CCCC2)nnc1C(C)C
→ 77, 84, 96, -10
Cc1cc(I)c(S(N)(=O)=O)cc1C
→ 112, 89, 103, 6
CCC1C(=O)N=C(SCC(=O)Nc2nc3ccc(C)cc3s2)NC1=O (stereo not given)
→ 100, 92, 108, -22
O=C(CCC(=O)N1CC=C(c2c[nH]c3ccccc23)CC1)NCc1ccc2c(c1)OCO2
→ x, x, 109, 7
CC(=O)Nc1cn(-c2ccccc2)nc1-c1ccccc1
→ 104, 93, x, 6
COc1ccc(N2CC(NC(=O)CCCc3ccccc3)CC2=O)cc1 (stereo not given)
→ 104, 89, 100, x
CC(C)Oc1cc(N2C(=O)CSCC2=O)c(Cl)cc1Cl
→ x, x, 102, -19
O=C(c1nn2c(C(F)(F)F)cc(-c3ccco3)nc2c1Cl)N1CCN(c2ccc(F)cc2)CC1
→ x, x, 100, -26
CC(=O)N1c2ccc(S(=O)(=O)NCC3CCC(C(=O)N4CC(C)CC(C)C4)CC3)cc2CC1C (stereo not given)
→ 109, 101, 98, 13
COc1ccc(OC)c(NS(=O)(=O)c2cc(-c3cc(C)no3)ccc2C(C)C)c1
→ 106, 93, 102, -10
O=S(=O)(NCCn1c(C(F)(F)F)nc2cccnc21)c1ccc(Br)cc1
→ x, x, 104, -20
COc1ccccc1NC(=O)c1nn(C)c(=O)c2ccccc12
→ 91, 83, 101, -8

# Reformatted with bars between the fields: five of the compounds above.
structure | Sa growth inh | Sa growth inh second temp | GIV-Gai inh | HCMV UL50-53 inh
CSc1cccc(NC(=O)CSc2nncn3c2cc2sccc23)c1 | 102 | 45 | 102 | x
CCCCn1c(CSc2ncccc2C(=O)O)nc2cc(S(=O)(=O)N3CCOCC3)ccc21 | 96 | 95 | x | 6
CCn1c(SCC(=O)NC2CCCC2)nnc1C(C)C | 77 | 84 | 96 | -10
Cc1cc(I)c(S(N)(=O)=O)cc1C | 112 | 89 | 103 | 6
CCC1C(=O)N=C(SCC(=O)Nc2nc3ccc(C)cc3s2)NC1=O (stereo not given) | 100 | 92 | 108 | -22

# Additional records.
# Order of values: Sa growth inh, Sa growth inh second temp, GIV-Gai inh, HCMV UL50-53 inh
CCc1ccc(S(=O)(=O)Nc2ccc3c(c2)sc(=O)n3C)cc1
→ 83, 62, 104, x
CN(C)C(CNS(=O)(=O)c1ccc(O)c(C(=O)O)c1)c1ccccc1 (stereo not given)
→ 79, 86, x, -44
O=C(CN1c2ccccc2S(=O)(=O)c2ccccc21)Nc1ccccc1Cl
→ 94, 84, 97, x
NC(=O)c1cc2ccc(O)cc2oc1=O
→ 97, 101, 109, -113
CC(CNC(=O)Cn1c(=O)oc2ccccc21)c1ccccc1 (stereo not given)
→ 104, 90, 100, -18
Cc1nc(Nc2cc(F)ccc2F)c2c(C)c(C)n(-c3ccc(F)cc3)c2n1
→ x, x, 108, -26
CC(=O)Oc1ccc2c3c(c(=O)oc2c1)CCCC3
→ 106, 83, x, -9
CCCCNC(=O)c1cc2c(s1)-c1c(C)nn(-c3ccccc3)c1CC2
→ 100, 81, 108, -26
CCc1ccc(OCC(=O)OCC(=O)N2CCc3ccccc3C2)cc1
→ 96, 81, x, -39
COC(=O)c1ccccc1NC(=O)CC1Sc2ccccc2NC1=O (stereo not given)
→ 93, 70, 99, -26
Cc1ccc(S(=O)(=O)c2nc(-c3cccc(C)c3)oc2N2CCCCC2)cc1
→ 98, 86, 107, -43
CCCc1nnc(NC(=O)c2sc(COc3cc(C)ccc3C)nc2C)s1
→ x, x, 106, 7
CCc1cccc(NC(=O)C(CC(C)C)NS(=O)(=O)c2ccc3c(c2)CCN3C(C)=O)c1 (stereo not given)
→ 90, 86, 107, -12
CCOC(=O)CN1C(=O)C2(OCCCCO2)c2ccccc21
→ 85, 90, 100, -13
c1ccc(OCCNCCOc2ccccc2)cc1
→ 87, 98, x, -7

# Taken from the listing, 3 compounds:
# Order of values: Sa growth inh, Sa growth inh second temp, GIV-Gai inh, HCMV UL50-53 inh
Cc1nc(Nc2cc(F)ccc2F)c2c(C)c(C)n(-c3ccc(F)cc3)c2n1
→ x, x, 108, -26
CC(=O)Oc1ccc2c3c(c(=O)oc2c1)CCCC3
→ 106, 83, x, -9
CCCCNC(=O)c1cc2c(s1)-c1c(C)nn(-c3ccccc3)c1CC2
→ 100, 81, 108, -26

# Remaining list, next part
# Order of values: Sa growth inh, Sa growth inh second temp, GIV-Gai inh, HCMV UL50-53 inh
O=C(CC1CCN(S(=O)(=O)c2ccc(Cl)cc2)CC1)NCCN1CCCC1
→ x, x, 102, -33
O=C1CN(Cc2cc(=O)oc3cc4c(cc23)CCC4)CCN1
→ 98, 96, x, -24
Cc1cc(NS(=O)(=O)c2ccc(NC(=O)NC(C)(C(F)(F)F)C(F)(F)F)cc2)no1
→ 66, 73, 102, -36
O=C(CSc1ccccc1C(=O)O)NC12CC3CC(CC(C3)C1)C2
→ 96, 100, x, 6
COC(=O)C1=C(Nc2cc(Cl)cc(Cl)c2)CSC1
→ 93, 90, 102, -11
Cc1cc(C(=O)N(Cc2ccccc2)c2ccccc2)no1
→ 114, 111, 107, -7
O=C(O)C1CC(=O)N(c2ccc3c(c2)OCO3)C1 (stereo not given)
→ x, x, 98, -18
COc1ccc(OC)c(NC(=O)c2cc(-c3ccncc3)n[nH]2)c1
→ x, x, 106, 0
COc1ccccc1-c1c(C)nn2c(SCC(=O)N3CCOCC3)cc(C)nc12
→ 79, 91, 100, -1
C/C(C(=O)c1ccc(Cl)cc1)=[N+](/[O-])C1CCC/C1=N\O (stereo not given)
→ 86, 90, 104, x
Brc1ccccc1-n1ncc2c1ncn1nc(Cc3ccccc3)nc21
→ 98, 85, 104, -18
CCCCCN(c1nc2nc(C)c(Cl)c(C)n2n1)S(=O)(=O)c1ccccc1
→ x, x, 101, 12
Cc1ccccc1NC(=O)CSc1cn(CC(=O)N2CCC(C)CC2)c2ccccc12
→ x, x, 102, 3
CC1CCc2cc(F)ccc2N1C(=O)CN1C(=O)c2ccccc2S1(=O)=O (stereo not given)
→ 112, 102, 106, -4
O=C(O)CSCC(=O)Nc1ccc2c(c1)OCCCO2
→ 88, 90, 101, 0
CCN(CC)C(=O)Nc1c(-c2c(Cl)cccc2Cl)noc1C
→ 96, 83, 106, -39
CC1CCN(C(=O)CSc2nc3c(c(=O)n2CCc2ccccc2)SCC3)CC1
→ x, x, 107, -17
O=C(COc1ccc(C(=O)c2ccc(F)cc2)cc1)NC1CCCC1
→ 90, 90, x, -7
O=c1c(Br)c(N2CCOCC2)cnn1-c1ccccc1
→ 104, 80, 104, x
C=CCC(CC=C)(CNC(=O)C(=O)Nc1ccc(C(=O)OCC)cc1)c1ccccc1
→ 86, 92, 100, 1
O=C(O)Cn1ncc2ccccc2c1=O
→ 95, 103, 106, 4
CCC(CC)NC(=O)Nc1ccccc1C(F)(F)F
→ 103, 84, 104, -27
Cc1cccc(CC(=O)Nc2cccc(-c3cn4cccnc4n3)c2)c1
→ 97, 82, 105, x
O=C(O)CCc1ccc(-c2ccc(F)cc2)n1CC1CCCO1 (stereo not given)
→ 84, 110, 116, -11
Cc1cc(N2CCCCC2)nc2ccc(N3C(=O)CCC3=O)cc12
→ 93, 83, 98, -2
Cc1ccc(C)c(NC(=O)C(=O)NCCCN2CCOCC2)c1
→ 103, 89, 105, 2
COCCCN1CCn2c(nc3cc(NS(=O)(=O)c4ccccc4)ccc32)C1
→ x, x, 102, -25
O=C1CCN(C(=O)CCc2nc3ccccc3s2)CC1
→ 120, 90, x, 9
CCCOc1ccc(-c2nn(-c3ccccc3)cc2C2NC(=O)NC(C)=C2C(=O)OC)cc1C (stereo not given)
→ 112, 88, 110, -32
COc1ccc(C(CNC(=O)c2ccccc2)N2CCCCC2)cc1 (stereo not given)
→ x, x, 103, -7
CCc1ccc(CN2CCc3nc(Nc4ccc5c(c4)OCCO5)ncc3C2)cc1
→ 122, 94, 101, x
Cc1cc(C)cc(NC(=O)N2CCN(c3nnc(C)c4c(C)n(-c5ccccc5)nc34)CC2)c1
→ x, x, 101, -1
Cc1ccc(NC(=O)CC(NCCc2ccccc2)C(=O)O)cc1 (stereo not given)
→ 109, 85, 102, x
Cc1ccn(S(=O)(=O)CC23CCC(CC2=O)C3(C)C)n1 (stereo not given)
→ 114, 92, 102, -13
CCOC(=O)N1CCC2(CC1)C(C(=O)C13CC4CC(CC(C4)C1)C3)C2(C#N)C#N (stereo not given)
→ 98, 83, 100, 3
COc1cc(OC)cc(C(=O)N2CCN(C)CC2)c1
→ 97, 101, 109, -4
CCCOc1ccc(C2C3=C(CCCC3=O)OC3=C2C(=O)CCC3)cc1
→ 94, 91, 104, 5
COc1ccc(C(CC(=O)Nc2ccc(C(C)=O)cc2)N2Cc3ccccc3C2=O)cc1 (stereo not given)
→ 130, 92, 101, x
Cc1occc1C(=O)N/N=C/c1sc(N2CCOCC2)nc1-c1ccccc1
→ 83, 104, x, 5
CCCNC(=O)c1csc2c1CCCCC2
→ 109, 86, 103, -16
CSc1scc2c1C(=O)/C(=C/N(C)C)CC2
→ 47, 43, 14*, -84
COc1ccc(OCC(=O)NCc2ccco2)cc1
→ 89, 98, 97, x
CC(C)(C)SCc1cccc(C(=O)N2CCN(c3ncccc3C(F)(F)F)CC2)c1
→ 107, 102, 107, -13
N=c1nc(SCCC(=O)O)ss1
→ 107, 73, 101, -14
Cc1cccc2c1-c1sc(C(=O)N3CCN(c4ccc(F)cc4)CC3)cc1CO2
→ 104, 77, 107, -5
CCc1ccc(C2C(C#N)=C(N)Oc3cc(C)oc(=O)c32)cc1 (stereo not given)
→ 83, 56, 103, -9
COc1cc(/C=C/C(=O)C(C#N)c2nc3ccccc3n2C)cc(OC)c1OC (stereo not given)
→ 102, 95, x, -27
